Calb FLC: affects C. albicans growth with fluconazole; C. albicans CaCi-2 (fluconazole-resistant clinical isolate) + fluconazole, Alamar Blue growth, 48 h; growth inhibition, % (no concentration beside the values); hit rate 0.57% among 300,000; AID 1979;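 active = most replicates above 75%; inconclusive = exactly half above 75%; inactive = most below 75%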;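 also: all wells also contain fluconazole at 8 µg/ml as a sub-toxic cotreatment; 0% = median of DMSO wells and 100% = median of geldanamycin control wells; wells of about 8 µL received 7.5 nL stock; the first replicate is given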
B2AR ag: agonists of human beta-2 adrenergic receptor inducing internalization; P07550; response, % (test concentration not listed); hit rate 0.43% among 340,000; Am2.2-beta2AR cells, FAP receptor internalization, flow cytometry; reference of the scale not given here;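 active = response above a set limit, near 3 SD of response in nonfluorescent compounds, cut at about 42% in these data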;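 also: stock transfer was 100 nL into about 11 µL; a reference agonist was the positive control; negative values mostly stem from fluorescent compounds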
Target sequence (P07550 whole entry, looked up): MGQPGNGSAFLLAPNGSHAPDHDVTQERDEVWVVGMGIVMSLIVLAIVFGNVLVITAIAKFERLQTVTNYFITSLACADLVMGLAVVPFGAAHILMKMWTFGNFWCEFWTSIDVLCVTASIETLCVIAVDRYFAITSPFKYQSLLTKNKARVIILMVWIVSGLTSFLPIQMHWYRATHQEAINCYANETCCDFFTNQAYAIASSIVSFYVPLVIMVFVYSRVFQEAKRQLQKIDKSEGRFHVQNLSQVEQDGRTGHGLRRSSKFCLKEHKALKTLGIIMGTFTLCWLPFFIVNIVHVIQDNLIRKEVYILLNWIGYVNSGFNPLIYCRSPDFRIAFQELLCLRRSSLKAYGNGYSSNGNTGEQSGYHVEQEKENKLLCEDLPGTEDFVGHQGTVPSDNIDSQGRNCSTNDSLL
Beta cell apopt: beta cell apoptosis inhibition. INS-1E cytokine-induced death, ATP luminescence, 48 h; percent of positive-control rescue, neutral wells zero. protection from apoptosis, % (no concentration beside the values). hit rate 0.8% among 300,000;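 active = all replicates at 75% or more, or half of them and the mean; inconclusive = half reach 75% but not the mean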;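 also: 0% = cytokine-treated negative control wells and 100% = positive control rescue; higher means more ATP so stronger rescue from cytokine killing; wells of about 40 µL received 100 nL stock; the first replicate is given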
ALR H2O2 inh: blocks human ALR sulfhydryl oxidase activity; purified ALR, DTT oxidation, H2O2 HRP-luminol luminescence; AID 485317; inhibition, % (test concentration not listed); P55789; hit rate 3.8% among 290,000;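 active = mean and each replicate at 75% or more; inconclusive = only one of the two met; inactive = neither met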;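 also: stock transfer was 7.5 nL into about 7.5 µL; 0% = neutral wells and 100% = wells with inactivated enzyme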
Target sequence (P55789 whole entry, looked up): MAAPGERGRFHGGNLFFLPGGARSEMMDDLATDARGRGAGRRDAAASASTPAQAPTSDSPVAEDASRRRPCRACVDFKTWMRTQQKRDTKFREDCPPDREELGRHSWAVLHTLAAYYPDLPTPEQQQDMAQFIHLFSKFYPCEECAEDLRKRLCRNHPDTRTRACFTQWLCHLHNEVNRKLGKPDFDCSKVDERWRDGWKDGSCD
T cruzi repl: blocks replication of Trypanosoma cruzi; T. cruzi beta-gal in NIH3T3, luminescence, 90 h; inhibition, % (no concentration beside the values); hit rate 1.4% among 300,000; AID 1885;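 active = mean inhibition across valid replicates above about 55%, limit read from the data; inconclusive = mean below that limit but half or more replicates reach it; inactive = mean below it, under half of replicates reach it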;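 also: signal also drops with host cell toxicity which is not excluded here; 0% = plate median of DMSO wells and 100% = zero luminescence signal; higher percent means less beta-gal luminescence so fewer parasites; stock transfer was 50 nL into about 50 µL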
LANA-H2A inh: blocks KSHV LANA binding to histone H2A/H2B. Q9QR71. cell-free LANA-H2A/H2B peptide, fluorescence polarization. inhibition, % (test concentration not listed). hit rate 0.6% among 320,000. AID 2629; in the data active = inhibition mostly above about 10%, no sharp cut-off; inactive = mostly below about 6.7%;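 also: stock transfer was 7.5 nL into about 10 µL; 0% = median of vehicle wells and 100% = median of positive control wells; one replicate is shown; the record names a cut of 25% in any replicate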
A1 inh: inhibitors of the anti-apoptotic protein A1, read as caspase activation. MEF A1-2A-BIM cells, Caspase-Glo 3/7 luminescence, 3 h; percent of clofoctol response, vehicle zero. caspase activation, % (no concentration beside the values). hit rate 0.066% among 330,000;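 active = over half of replicate activation scores above 10%, or exactly half above 10 with the replicate mean above 10; inconclusive = replicate mean below 10 yet half the replicates above 10; inactive = over half of replicates below 10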;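 also: wells of about 30 µL received 50 nL stock; many hits fall short of the cut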
Ecoli rRNA inh: selective bacterial rRNA inhibition in E. coli; E. coli WT GFP vs humanized-ribosome RFP mutants, fluorescence, 24 h; active compounds read low; DMSO median 0, no signal -100; GFP signal change (wild-type ribosome), % (test concentration not listed); hit rate 1.6% among 350,000; AID 720706;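 active = significant combined selectivity score with lowered wild-type GFP, culture density cut under 30%, mutant RFP and density less affected; inactive = any of these conditions unmet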; also: one replicate is shown; some compounds called inactive have numbers as strong as hits
Ecoli rRNA inh OD600: second read-out of Ecoli rRNA inh, no call of its own (marks repeat the call); OD600 change, %; measured here: OD600 growth;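 optical density of the mix in the first replicate; 0 = DMSO median and -100 = no signal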
Ecoli rRNA inh RFP: recorded beside Ecoli rRNA inh, whose call it bears; RFP signal change, %; measured here: RFP humanized mutant strains;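 first replicate; 0 = DMSO median and -100 = no signal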
Active calls of the source: *; ? = inconclusive; · = no result given. Not all compounds are listed. The share of hits here may be higher or lower than overall.

mol	Calb FLC	B2AR ag	Beta cell apopt	ALR H2O2 inh	T cruzi repl	LANA-H2A inh	A1 inh	Ecoli rRNA inh	Ecoli rRNA inh OD600	Ecoli rRNA inh RFP
Cc1ccc(S(=O)(=O)NCCNc2ccc([N+](=O)[O-])cc2)cc1	17	1	-1	-4	-10	-5.0	-0.3	-27*	-19*	0.6*
O=C(COc1ccccc1)NCC(=O)N/N=C/c1ccco1	-6	-7	-5	1	-15	-1.2	-0.3	·	·	·
CC(C)OC(=O)CN1C(=O)S/C(=C/c2ccc(N3CCCCC3)o2)C1=O	-11	-242	10	17	48	-11	?	11	14	1.1
CCC(CC)C1C(C#N)=C(N)Oc2n[nH]c(C)c21 (stereo unspecified)	-9	8	-4	6	-7	2.6	0.1	·	·	·
Cc1ccc(Oc2ncc(CN3CC(C)OC(C)C3)s2)cc1 (stereo unspecified)	13	-4	-2	0	4	3.0	-1.1	·	·	·
CC(C)CSc1nc2ccccc2n1CC(N)=O	3	1	-3	-7	-8	-2.7	0.7	·	·	·
C#CCN(C(=O)c1ccc(OC)c(OC2CCN(C(C)C)CC2)c1)C1CCCCC1	-12	-1	4	-8	17	-6.5	0.6	3	4	-2.3
O=C(NCCc1ccccc1)C(=O)NCC1(c2ccccc2)CCCC1	-3	1	-1	-34	21	-8.8	0.5	·	·	·
O=C(CSc1nc2[nH]ncc2c(=O)n1-c1ccccc1Cl)N1CCCC1	-1	-14	-5	-7	5	2.4	0.7	0	4	-0.5
CCOC(=O)C1CCN(C2CC(=O)N(c3ccc(OCC)cc3)C2=O)CC1 (stereo unspecified)	0	8	0	-1	-4	1.5	1.9	·	·	·
O=C(CSc1nc2ccccc2o1)NCC(=O)c1ccccc1	-9	-7	2	-20	-15	1.6	0.4	·	·	·
COc1ccc(NS(=O)(=O)c2ccc3nc(COc4ccc(C#N)cc4)[nH]c3c2)cc1	-6	1	4	98*	0	-0.3	0.1	·	·	·
CCCCN(C(=O)c1nn(C)c(=O)c2ccccc12)c1c(N)n(CCC)c(=O)[nH]c1=O	·	-7	-7	0	·	3.3	0.0	·	·	·
CC(C)(C)OC(=O)NCCCCc1cn(CC(=O)N2CCN(C(=O)OC(C)(C)C)CC2)nn1	-8	-2	-2	-6	-25	0.6	0.9	3	2	-6.2
CCn1c(-c2ccc(F)cc2)cnc1SCC(=O)N1CCc2ccccc21	2	·	-4	-5	-6	0.8	-0.1	·	·	·
CN(CC(=O)Nc1ccccc1Cl)C(=O)Cn1cc(C(F)(F)F)ccc1=O	·	14	0	·	·	-2.0	0.1	10	10	0.9
CC(C)c1ncc(C(O)c2cccc3ccccc23)n1C (stereo unspecified)	-8	-8	12	·	17	-2.4	-0.4	·	·	·
COCc1ccc(O)c2ncccc12	-1	-9	91*	-13	44	1.9	0.4	·	·	·
CCC1=C(OC(=O)N(CC)CC)N2C(=O)OC(=NCCc3c[nH]c4ccccc34)[C@]2(Cc2ccccc2)[C@H]2C1=CC[C@H]1C(=O)N(CC)C(=O)[C@H]12	56	3	4	-2	2	-4.0	-0.2	4	5	-6.2
CC(=O)c1ccc(N2C(=NC(=O)COc3ccccc3)SC3CS(=O)(=O)CC32)cc1 (stereo unspecified)	-14	-3	0	0	-6	-1.4	-0.5	3	0	6.8
COc1ccc(C(=O)COC(=O)CCS(=O)(=O)c2ccc(C)cc2)c(OC)c1	-5	1	-4	19	-23	-3.4	-1.1	-2	-11	2.1
Cc1ccc(C(=O)N2CCOCC2)cc1S(=O)(=O)N1CCCCC1	3	-3	-7	-5	7	0.4	0.7	5	10	2.8
Cc1n[nH]c(C)c1Sc1ccccc1N	-2	3	-6	96*	-27	0.1	-0.1	3	1	0.1
COc1ccccc1C(=O)NC(=O)COC(=O)c1ccc([N+](=O)[O-])cc1	-3	-10	0	15	-7	-3.2	-0.3	6	12	-0.6
COc1cccc(C2=NOC(C(=O)NCc3ccc(F)cc3)C2)c1 (stereo unspecified)	4	18	-4	-4	-31	-0.7	-1.1	·	·	·
Brc1ccc(N=Cc2ccccn2)cc1	-10	5	-6	·	16	-3.6	-0.2	·	·	·
CCOC(=O)c1[nH]c(C)c(C(=O)OCC(=O)N2CC(=O)Nc3ccccc32)c1C	16	0	-4	8	-6	-3.4	0.1	13	12	3.1
N#Cc1ccc(CSc2nnc3ccccn23)cc1	-4	4	-4	-5	-25	-1.1	0.2	2	7	-0.7
CN(C)N1C(=O)/C(=C/c2ccco2)SC1=Nc1ccccc1	18	2	·	-1	5	1.1	0.0	-2	-12	-4.7
COc1ccc(CC(=O)OC(C)C(=O)c2ccc(C)cc2)cc1 (stereo unspecified)	0	-1	-2	2	-8	-1.2	0.5	-30*	-23*	0.3*
COCCCN1C(=O)C(=O)/C(=C(/O)c2ccc(S(=O)(=O)N3CCCCC3)cc2)C1c1ccc(O)c(OC)c1 (stereo unspecified)	-2	4	·	19	-13	1.6	-0.3	8	17	-1.3
O=C(NCc1cccnc1)c1sc2cc(Cl)ccc2c1Cl	3	-12	-12	10	42	-4.6	0.0	·	·	·
CC(=O)N(c1cccc(Cl)c1)c1nc(C)cc(C)c1C#N	-1	-3	-11	0	-6	-0.4	1.2	13	7	0.2
COc1ccc(C(=O)NCCNc2nc3c(C)cccc3cc2C#N)cc1OC	4	9	2	-39	2	3.4	0.4	6	1	1.3
Cc1cc(CN2CCN(CC(=O)Nc3cc(C(F)(F)F)ccc3-n3cncn3)CC2)no1	·	9	3	·	·	-1.2	1.0	1	7	-1.3
COc1ccccc1-c1ccc(=O)n(CC(=O)NC2CCc3ccccc32)n1 (stereo unspecified)	0	0	-6	-6	-2	3.8	-0.4	-8	-25	-12
CC(=O)OCC(=O)c1ccc2ccn(C(C)=O)c2c1	-25	4	1	-6	-7	0.6	-0.3	·	·	·
CN(C)S(=O)(=O)c1ccc(C(=O)OCc2ccc(C#N)cc2)cc1	-4	2	-5	-1	-13	1.8	0.3	·	·	·
Cc1ccccc1NC(=O)CCNS(=O)(=O)c1cccc2nsnc12	-4	6	-1	·	-6	-2.8	0.3	-3	-7	1.6
CN(CCNC(=O)c1cn(C)c2ccc(S(=O)(=O)N3CCCC3)cc2c1=O)CCc1ccccc1	-12	5	-5	-3	37	6.3	0.0	14	-1	-1.5
Cc1cccc(OC(C)C(=O)Nc2cc(S(=O)(=O)N3CCCCC3)ccc2C)c1 (stereo unspecified)	·	8	3	-5	·	2.0	0.7	2	7	1.3
COc1ccc(-n2c(SCC(=O)Nc3nc(C)cs3)nnc2-c2ccoc2C)cc1	-3	-5	-2	-35	-3	-3.3	1.4	·	·	·
CCCCCCn1c(N2CCN(c3cccc(Cl)c3)CC2)nc2c1c(=O)[nH]c(=O)n2C	-6	20	-4	-5	51	0.9	0.4	·	·	·
CCOC(=O)C1CCCN(S(=O)(=O)c2ccc(S(=O)(=O)N3CCCC3)cc2)C1 (stereo unspecified)	4	-1	29	-6	8	4.7	0.3	7	17	-1.8
CCn1c(SC)nnc1C1CCCN(CC(=O)Nc2ccccc2N2CCOCC2)C1 (stereo unspecified)	-20	-7	-1	11	24	2.7	-0.2	6	3	-0.7
CCOC(=O)c1ccc(NC(=S)NCCCN2CCCCC2)cc1	7	-9	-13	31	18	0.2	-0.1	·	·	·
CCOc1ccc(CCNC(=O)CN2CCN(Cc3ccccc3F)C2=O)cc1OCC	2	2	-3	·	15	2.6	-0.8	·	·	·
CC1Cc2ccccc2N1C(=O)/C=C/c1cccc(F)c1 (stereo unspecified)	?	-3	·	-4	-9	5.6	-6.9	-27	-43	0.8
Cc1ccccc1S(=O)(=O)Cc1ccc(C(=O)NC(C)c2ccccc2)o1 (stereo unspecified)	-1	4	0	-1	9	1.6	-0.2	-1	-4	-2.5
CC1CN(C)C(C)CC1NCc1ccc2c(c1)OCO2 (stereo unspecified)	1	-1	0	-11	-10	-2.4	-0.3	·	·	·
Cc1ccc(C(=O)ONc2ccc(N=NC(=O)c3ccccc3O)cc2)cc1	-33	-4	4	14	-4	2.8	-5.5	·	·	·
CN(C)S(=O)(=O)c1cccc(C(=O)OCC(=O)c2c(N)n(C)c(=O)n(C)c2=O)c1	1	1	2	-4	-6	-2.7	-0.3	5	10	2.5
COc1ccc(C2=NS(=O)(=O)N(C)C(C(=O)NCc3ccc4c(c3)OCO4)=C2)cc1OC	-9	-3	-3	-4	-1	-0.5	0.9	-5	-9	-0.2
CCCN1CCN(CCCNC(=O)Cn2ncc3c4ccccc4n(C)c3c2=O)CC1	-6	-9	·	7	-17	9.6	-0.1	0	4	-0.9
O=C1CC(=C(c2ccccc2)c2ccccc2)C(=O)N1CCCCN1CCN(c2ccccc2)CC1	-10	13	0	-6	40	-1.9	0.6	·	·	·
Cc1cc(NC(=O)Cn2nc(C)c([N+](=O)[O-])c2C)no1	6	-1	-3	3	-10	1.8	0.5	10	-1	-3.0

Continued.
mol	Calb FLC	B2AR ag	Beta cell apopt	ALR H2O2 inh	T cruzi repl	LANA-H2A inh	A1 inh	Ecoli rRNA inh	Ecoli rRNA inh OD600	Ecoli rRNA inh RFP
Cc1c(NC(=O)C(C)OC(=O)c2nc(Cl)ccc2Cl)c(=O)n(-c2ccccc2)n1C (stereo unspecified)	0	-7	-1	-5	-11	0.6	0.3	2	3	-0.9
CCOC(=O)c1c(C)[nH]c(C(=O)N2CCN(C(=O)OCC)CC2)c1C	3	-4	1	-1	0	1.5	1.0	·	·	·
CC(NC(=O)C1CCCO1)c1ccccc1 (stereo unspecified)	4	3	-1	-3	-9	4.9	1.5	·	·	·
C#CCOCCOCCOCCNc1nc(N2CCOCC2)nc(N2CCN(C(=O)[C@H](Cc3cc4ccccc4[nH]3)n3cc([C@@H](N)C(C)CC)nn3)CC2)n1 (stereo partly specified)	-10	0	11	-14	?	0.2	0.5	2	6	39
O=[N+]([O-])c1ccc(Oc2cccc(C(F)(F)F)c2)nc1	1	-1	-20	-3	-20	8.8	-0.2	6	7	-2.8
O=C(Nc1ccccc1O)N1c2ccccc2Sc2ccccc21	18	4	-3	84*	1	0.0	1.8	-21	-17	-1.1
CC(=O)N1CCc2cc(S(=O)(=O)CCC(=O)N(C)Cc3ccco3)ccc21	3	-5	-2	0	-16	-0.7	-0.9	4	12	-1.5
CS(=O)(=O)N(CC(=O)Nc1ccccc1-c1ccccc1)c1ccccc1	21	0	-8	-8	22	-9.1	-0.5	-23	-22	-3.7
COC(=O)c1ccc(C)c(NC(=O)CN(c2ccccc2)S(=O)(=O)N(C)C)c1	?	0	-2	-2	-5	-0.4	0.0	-6	-18	0.1
COc1ccc(OC)c(N=c2oc3c(OC)cccc3cc2C(=O)NCc2ccco2)c1	-3	3	5	22	3	-0.4	·	·	·	·
COc1cccc2cc(C(=O)NNC(=O)c3ccc(Br)cc3)c(=O)oc12	-2	-6	1	-2	-18	-0.4	-0.1	-8	3	-5.7
